hNpr1 antagonist: blocks ANP-stimulated signaling of human Npr1 receptor. hit rate 1.6% among 76,000. HEK293 hNpr1 GloSensor cGMP, ANP-stimulated luminescence. Potency, µM (titrated, usually from 46.3 µM), for the others: at the highest dose activity change, negative = inhibition, actives largely listed as inhibitors. P16066; active = well fitted inhibition curve with a large enough effect; inconclusive = small, poorly fitted or top-dose-only effect; inactive = no such curve, though single readings can be large or run the other way;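 note: nearly all actives have a fitted effect of over 60% in size; nearly all hits also lower the signal before the agonist is added; a reference antagonist and vehicle were the controls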
Target sequence (P16066 whole entry, looked up): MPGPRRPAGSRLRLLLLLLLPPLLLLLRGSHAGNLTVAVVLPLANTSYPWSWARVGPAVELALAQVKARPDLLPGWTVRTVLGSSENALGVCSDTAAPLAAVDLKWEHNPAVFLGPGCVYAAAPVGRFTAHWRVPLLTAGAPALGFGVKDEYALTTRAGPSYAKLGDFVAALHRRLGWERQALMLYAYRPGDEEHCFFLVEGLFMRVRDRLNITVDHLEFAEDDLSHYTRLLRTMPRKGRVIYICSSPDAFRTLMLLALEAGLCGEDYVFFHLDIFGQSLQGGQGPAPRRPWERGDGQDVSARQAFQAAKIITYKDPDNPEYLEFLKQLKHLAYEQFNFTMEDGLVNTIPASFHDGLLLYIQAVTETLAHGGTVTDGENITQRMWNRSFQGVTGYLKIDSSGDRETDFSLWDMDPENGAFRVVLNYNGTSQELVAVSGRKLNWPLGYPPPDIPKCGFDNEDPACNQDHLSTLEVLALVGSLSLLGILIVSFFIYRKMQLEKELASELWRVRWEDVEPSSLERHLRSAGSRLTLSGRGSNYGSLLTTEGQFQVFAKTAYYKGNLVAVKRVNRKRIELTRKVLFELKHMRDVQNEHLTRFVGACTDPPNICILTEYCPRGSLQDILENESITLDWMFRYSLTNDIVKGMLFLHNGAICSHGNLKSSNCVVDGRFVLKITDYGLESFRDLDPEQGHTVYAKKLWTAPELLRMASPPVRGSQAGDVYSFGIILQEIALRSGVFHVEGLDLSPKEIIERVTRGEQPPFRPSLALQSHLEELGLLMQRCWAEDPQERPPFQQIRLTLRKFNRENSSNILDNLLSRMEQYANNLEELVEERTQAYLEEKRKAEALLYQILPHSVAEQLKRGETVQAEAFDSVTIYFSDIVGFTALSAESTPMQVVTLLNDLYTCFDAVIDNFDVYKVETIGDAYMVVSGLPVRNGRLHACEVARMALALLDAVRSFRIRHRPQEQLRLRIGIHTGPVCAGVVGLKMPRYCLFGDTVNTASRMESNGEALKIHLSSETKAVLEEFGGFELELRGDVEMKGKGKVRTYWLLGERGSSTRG
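HEK293 cells stably expressing human Npr1 and cGMP GloSensor pGS-40F, loaded 2 h with 2% GloSensor reagent, given compound 30 min at room temperature. Luminescence read before and 20 min after 0.1 nM hNppA.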
Numbers without * were called inactive; ? = inconclusive; [ ] = remark or other dose. % is set by controls: 0 for no effect and ±100 for the full control effect; potency is the fitted concentration of half-maximal effect.

The first 5 entries, to show the layout:
# | smiles | hNpr1 antagonist
1 | COc1ccc(N2Cc3c(ncnc3N3CCC(O)CC3)N(C)CC2=O)cc1 | 5%
2 | COc1ccc(C2(CNC(=O)C[C@H]3NC(=O)c4ccccc4NC3=O)CCOCC2)cc1 | -2%
3 | Cc1c(CN2CCCC(c3ccc(C(=O)O)cc3)C2)cnn1C (configuration not stated) | -1%
4 | O=C(c1nc2sccn2c1Br)N1CCCC1 | 15%[70.6 µM]
5 | CC(C)N1C(=O)C2(CCCC2)C1C(=O)O (configuration not stated) | 3%

The listing (from the top)
# | smiles | hNpr1 antagonist
1 | COc1ccc(N2Cc3c(ncnc3N3CCC(O)CC3)N(C)CC2=O)cc1 | 5%
2 | COc1ccc(C2(CNC(=O)C[C@H]3NC(=O)c4ccccc4NC3=O)CCOCC2)cc1 | -2%
3 | Cc1c(CN2CCCC(c3ccc(C(=O)O)cc3)C2)cnn1C (configuration not stated) | -1%
4 | O=C(c1nc2sccn2c1Br)N1CCCC1 | 15%[70.6 µM]
5 | CC(C)N1C(=O)C2(CCCC2)C1C(=O)O (configuration not stated) | 3%
6 | CN(C)S(=O)(=O)N1C[C@@H]2CC[C@H](C1)N(Cc1ccccc1C#N)C2 | -7%
7 | CNC(=O)[C@@H]1C[C@@H](n2cc(CNC(=O)Nc3cc(C)ccc3C)nn2)CN1 | -2%
8 | COc1ccc(CC2CCOC3(CCN(C(=O)Nc4ccccc4F)CC3)C2)cc1 (configuration not stated) | ?
9 | CCO[C@H]1CN(C(=O)CCc2ccc(S(=O)(=O)NC)cc2)C[C@@H]1O | 1%
10 | COc1ccc(CNC(=O)c2c(C)sc3ccn(CC(C)C)c(=O)c23)cc1OC | -3%
11 | COCCC(=O)N1CCCN(S(C)(=O)=O)c2ccccc21 | -4%
12 | COc1ccc(C2Cn3nnc(C(=O)N4CCC(C(=O)Nc5cccc(Cl)c5)CC4)c3CO2)cc1 (configuration not stated) | 0%
13 | CC(C)NC(=O)N[C@H]1CCN(C(=O)c2cnccn2)[C@@H]1C(=O)N[C@@H](Cc1cccs1)C(N)=O | 6%
14 | CNC(=O)CCn1ncc2cc(OCc3ccccc3-c3cccc(O)c3)ccc21 | 11µM*
15 | Cc1cc(CNC(=O)c2ccc(S(N)(=O)=O)cc2)c2[nH]c(C)c(C)c2c1 | 0%
16 | Clc1ccccc1C1(c2ccnc(C3CCCC3)n2)CCNCC1 | -16%
17 | COc1ccc(N2CCN(c3nc(C(=O)N4CCC(C)CC4)cs3)CC2)cc1 | ?
18 | COc1ccc(CC2(CO)CCN(c3cc(OC)nc(N)n3)CC2)cc1 | ?
19 | COc1ccc(CN(C)C2CCCc3ccccc32)cc1 (configuration not stated) | -4%[70.6 µM]
20 | COc1ccc(C(=O)N[C@@H]2CN(C(=O)Nc3ccc(OC(F)(F)F)cc3)CCC[C@H]2O)cc1 | ?
21 | COc1cccc(C(=O)NCC2(COc3ccccc3)C[C@@H](O)[C@@H](O)C2)c1 (some centres not stated) | -11%[70.6 µM]
22 | CC1=C[C@@H](CN2CCOCC2)[C@H](C(C)C)C[C@H]1Cc1nnc(-c2ccncc2)o1 | ?
23 | CC(C)c1noc(-c2cn(C3CCCN(C(=O)c4ccccc4)C3)nn2)n1 (configuration not stated) | -30%
24 | CCOC(=O)Cc1csc(NC(=O)C2CC(=O)N(c3n[nH]c4ccccc34)C2)n1 (configuration not stated) | -1%
25 | O=C(Cc1cccc(F)c1)N1CCC(c2n[nH]c(=O)n2-c2ccccc2)CC1 | -4%
26 | O=C(NCc1cccc(F)c1)C1Cn2cccc2C(=O)N1Cc1cccnc1 (configuration not stated) | -5%
27 | Cc1ccc(C(=O)N2CCC3(CC2)N=C(c2ccccc2)NO3)cc1 | 1%
28 | Cc1nccn1-c1ccc(CNC(=O)c2cn(-c3ccccc3)nn2)cc1 | -19%
29 | CCOc1ccc(NC(=O)Cn2c(-c3ccc(Cl)cc3)nc(C)c(CCO)c2=O)cc1 | -1%
30 | CCNc1ncc(-c2nc3cc(S(=O)(=O)NC(C)C)ccc3n2C(C)C)cn1 | 6%
31 | O=C1CC(c2ccccc2)N(C(=O)CNC(=O)c2n[nH]c3ccccc23)CCCCCN1 (configuration not stated) | 1%
32 | CCN1C(=O)N(C2Cc3ccccc3C2)C(=O)C12CCN(Cc1cnn(-c3ccccc3)c1)CC2 | 1%
33 | Cc1nn(C)c(C)c1CCNC(=O)C1(CCO)CC12CCOCC2 (configuration not stated) | 2%
34 | Cc1cnc(C2CC2)n1CCNC(=O)C(C)C | -17%
35 | Cc1ccc2[nH]c(=O)c(CCC(=O)NC3CCN(Cc4ccccc4)CC3)cc2c1 | 10%
36 | Cc1ccc(CNC(=O)N2CCCC(Cc3nncn3-c3ccccc3)C2)cc1 (configuration not stated) | -1%
37 | O=C(c1ccc(F)c(F)c1)N1CCC2(CC1)N=C(c1ccc(Cl)cc1)NO2 | -26%
38 | CC(C)NC1(Cc2cc(CCO)on2)COC1 | 8%[70.6 µM]
39 | CCCNC(=O)O[C@@H]1CC[C@]2(C)[C@H](CC[C@@H](O)[C@H]2CC(=O)N2CCCCC2)[C@]1(C)CO | 2%
40 | O=C1CC(c2ccccc2)N(C(=O)C2CC2)CCCN(C(=O)CCCc2ccccc2)CCN1 (configuration not stated) | 3%
41 | COc1ncc(CN2CC[C@@H]3OCC(=O)N(c4ccccc4)[C@H]3CC2)cn1 | 0%[70.6 µM]
42 | O=C(NCc1nnc2c(-c3nc(C4CC4)no3)cccn12)c1c(F)cccc1Cl | -13%
43 | O=C(c1nccc2ccccc12)N1CCC2(CC1)CC(CO)N(C(=O)c1ccccc1)C2 (configuration not stated) | -3%
44 | c1cc2c(cc1-c1n[nH]c(C3CCOCC3)n1)OCO2 | 0%
45 | CCOc1ccccc1C1NC(=O)N(CC(=O)Nc2cccc(F)c2)C2=C1C(=O)OC2 (configuration not stated) | -2%

Fetched one by one from the list above, 4 records:
# | smiles | hNpr1 antagonist
43 | O=C(c1nccc2ccccc12)N1CCC2(CC1)CC(CO)N(C(=O)c1ccccc1)C2 (configuration not stated) | -3%
31 | O=C1CC(c2ccccc2)N(C(=O)CNC(=O)c2n[nH]c3ccccc23)CCCCCN1 (configuration not stated) | 1%
42 | O=C(NCc1nnc2c(-c3nc(C4CC4)no3)cccn12)c1c(F)cccc1Cl | -13%
34 | Cc1cnc(C2CC2)n1CCNC(=O)C(C)C | -17%

Going on with the list:
# | smiles | hNpr1 antagonist
46 | Cc1ccc(C(=O)N2CCC3(CC2)NC(=O)N(Cc2ccc(F)cc2)C3=O)cc1 | -16%
47 | O=C(C1CCOC1)N1CC(Oc2ccc(-c3nc(-c4ccccc4)no3)cc2)C1 (configuration not stated) | 3.2µM*
48 | O=C(c1ccccn1)N1C[C@@H]2OCC(=O)N(CC3CC3)[C@@H]2C1 | 1%[70.6 µM]
49 | N#Cc1ccc(S(=O)(=O)N2CC[C@@H]3C(=O)NCCCCCCN(Cc4ccncc4)[C@@H]3C2)cc1 | -1%
50 | CC(C)CCN1CCC(N2CCN(S(=O)(=O)c3ccc(F)c(F)c3)CC2)C1=O (configuration not stated) | -10%
51 | COc1ccc2[nH]c(=O)c(CCC(=O)NCCc3ccc(S(N)(=O)=O)cc3)cc2c1 | -14%
52 | O=C1NCCOCCCN(S(=O)(=O)c2ccccc2)[C@H]2CCCC[C@@H]12 | 4%
53 | O=C(CCc1conc1-c1cccc(F)c1)NC1CCCCCC1 | -14%
54 | COc1ccccc1C(=O)NCc1nnc2cc(-c3nc(C4CC4)no3)ccn12 | -3%
55 | O=S(=O)(Cc1ccccc1)N1CCCC(Cc2noc(-c3cccnc3)n2)C1 (configuration not stated) | 10%
56 | COCCN1Cc2ccc(Nc3cccnc3)nc2C(C)(C(=O)NCc2ccncc2)C1 (configuration not stated) | 2%[70.6 µM]
57 | CCCNC(=O)NC[C@@H]1C=C(C)[C@H](Cc2nc3ccccc3[nH]2)C[C@H]1C(C)C | ?
58 | CCC(=O)NCC12CCC=C1N(C)C(=O)CC2 (configuration not stated) | 13%
59 | CN(C)C[C@@H]1CN(Cc2ccccc2)C[C@H]1NC(=O)c1cccn1C | 6%
60 | COC(=O)[C@@H]1Cc2c([nH]c3ccccc23)[C@H]2C[C@@H](NCCNC(C)=O)C[C@@H](c3ccc(C(C)C)cc3)N21 | -25%
61 | O=C(NC[C@H]1COCc2nc3cccnc3n21)Nc1ccccc1 | 5%[70.6 µM]
62 | COc1cccc(-c2cc(C(=O)NCCc3n[nH]c(=O)n3C)[nH]n2)c1 | 4%
63 | COc1nccc(N2CCC(CC(=O)NCc3cccc(OC)c3OC)CC2)n1 | -20%
64 | CCCN(CC1CCOC1)C(=O)c1c(F)cccc1Cl (configuration not stated) | 11%
65 | COCCN1CC2(CCC1=O)CCN(C(=O)[C@@H]1C[C@@H](O)CN1)CC2 | 1%
66 | CN1CCC(OC2CCN(C(=O)C3CC3)CC2)CC1 | -1%
67 | CCc1ccc(C(=O)NC(C)(C)c2cn([C@H]3CN[C@H](C(=O)NC)C3)nn2)cc1 | 4%
68 | CCCCS(=O)(=O)N1CCn2nc(C(O)c3nccn3C)cc2C1 (configuration not stated) | 4%
69 | COCCN1C(=O)c2cccn2CC1CNC(=O)c1[nH]nc2c1COc1ccccc1-2 (configuration not stated) | 1%
70 | CN(CC1CCOC1)C(=O)Nc1cccc(F)c1 (configuration not stated) | 2%
71 | Cc1ccc(C2=NC3(CCN(C(=O)c4ccc(F)c(F)c4)CC3)ON2)cc1 | 2%
72 | CC(C)N1CCn2nc(C(=O)NCCc3ccc(Cl)cc3)cc2C1 | -19%
73 | COc1cccc(CN2CCc3c(cc(C(=O)Nc4ccc(C)cc4C)n3C)C2)c1 | -2%
74 | Cc1cc2nc(CO[C@H]3CN(C4CCC4)C[C@H]3F)[nH]c2cc1C | 4%[70.6 µM]
75 | COc1ccnc(-c2nnc3ccc(N4C[C@@H](C)O[C@@H](C)C4)nn23)c1 | 6%[70.6 µM]
76 | O=C(NCc1ccco1)c1cc2c(s1)CCN(C(=O)c1ccc(Cl)cc1)C2 | -12%
77 | COCCCNC(=O)CCCN1C(=O)COc2ccc(C(=O)COc3cccc(C)c3C)cc21 | -17%
78 | COc1ccc(C(=O)N2CCC(N3C(=O)C(O)C34CCCCC4)CC2)cc1F (configuration not stated) | 0%
79 | CCN(CC)Cc1cnc2c(C(=O)N(C)Cc3cc(C)cc(C)n3)cnn2c1 | -1%
80 | Cc1cccc(C(=O)N2CC(C(=O)N(C)C)C3(CCOCC3)C2)c1 (configuration not stated) | 0%
81 | CCn1ccnc1CN1CCCC(CNC(=O)c2ccc(-c3ccccc3)cc2)C1 (configuration not stated) | -7%
82 | Cc1nc(N(C)Cc2cccc(-c3nn[nH]n3)c2)c2cnn(C)c2n1 | 8%
83 | COCCN1C(=O)c2ccccc2C(C(=O)Nc2nc(C)c(C)s2)C12CCCC2 (configuration not stated) | 4%
84 | Cn1c(Cn2cccn2)nnc1C1CC(NC(=O)c2ccsc2)C1 (configuration not stated) | 5%
85 | CCO[C@H]1C[C@@H](O)C12CCN(C(=O)CCCc1ccccc1)CC2 | -3%
86 | COc1ccccc1OC1(C(=O)O)CCN(Cc2nccn2C)CC1 | 5%
87 | O=C(Nc1ccc(F)c(Cl)c1)C1=NO[C@@H]2CN(Cc3cccnc3)C[C@H]12 | 28µM*
88 | CN1Cc2ccc(NCc3ccccc3)nc2C(C)(C(=O)NCCc2cnc[nH]2)C1 (configuration not stated) | 0%[70.6 µM]
89 | COc1ccc(C2Cn3cnc(C(=O)N4CCC(C(=O)NCc5ccco5)CC4)c3CO2)cc1 (configuration not stated) | -7%
90 | Cc1cc2nc3n(c(=O)c2n1CC(=O)Nc1cccc(Br)c1)CCCC3 | ?
91 | COc1ccc2cc1Nc1ccc(cc1)C[C@H](NCC1CC1)C(=O)N(C)[C@@H](C(=O)NCc1ccccc1)C2 | -14%
92 | CCOc1ccccc1CNC(=O)c1noc(-c2ccc(F)cc2)n1 | -10%
93 | CCCNC(=O)c1c(C)oc2ccn(Cc3ccc(F)cc3)c(=O)c12 | -15%
94 | Cc1ccc(C)c(C(=O)N2CCC3(CC2)NC(=O)N(c2ccccc2)N3)c1 | 1%
95 | Cc1ccc(-c2noc([C@@H]3C[C@H](NS(=O)(=O)c4ccccc4)CN3C)n2)cc1 | ?
96 | C=CCn1cc2c3c(cccc31)[C@H](CC(C)C)N[C@H](C(=O)NCCN1CCOCC1)C2 | -1%[70.6 µM]
97 | COCCOc1cc(C)c2c(c1C)C[C@H](C(C)C(=O)N1CCSCC1)CC2 (some centres not stated) | ?
98 | COc1cccc(-c2cc(-c3nc(-c4ccc5nc[nH]c5c4)no3)[nH]n2)c1 | -5%
99 | CC(=O)Nc1cccc(-c2cc(-c3c(C)noc3C)cc3c2C(=O)N(C)C3)c1 | 4%[70.6 µM]
100 | Cc1noc(C)c1S(=O)(=O)NC1CCCN(C2CCCCCC2)C1 (configuration not stated) | -2%
101 | O=C1Cc2c(-c3ccc4c(c3)OCO4)n[nH]c2CN1CC1CCOCC1 | 3%[70.6 µM]
102 | O=C(c1ccccn1)N1CCC2(CC1)CC(Cc1nc(-c3cnccn3)no1)CCO2 (configuration not stated) | -2%
103 | CN(C)Cc1cn([C@H]2CO[C@H]3[C@@H]2OC[C@H]3OC(=O)Nc2ccc(C(C)(C)C)cc2)nn1 | -2%[70.6 µM]
104 | CCOC(=O)c1cccc(NC(=O)N2CC[C@@H](CC(=O)N[C@@H](CO)CC(C)C)[C@@H](CC)C2)c1 | 0%
105 | CN1CCN(c2nc3c(c(=O)[nH]2)CCN(Cc2ccc(F)cc2F)CC3)CC1 | 1%

(more compounds)
# | smiles | hNpr1 antagonist
106 | O=C(Cc1c[nH]c2ncc(-c3ccccc3F)cc12)N1CCOCC1 | 25µM*
107 | COCCN1C(=O)c2ccccc2C(C(=O)NCCCc2ccccc2)C12CCCC2 (configuration not stated) | -4%
108 | CCOC(=O)c1ccc(NC(=O)Cn2c(N3CCC(C)CC3)nc(C)cc2=O)cc1 | 14µM*
109 | COc1ccnc(N2CCC(CO)(Cc3ccccc3C(F)(F)F)CC2)n1 | -7%

Compound activity: PubChem, National Center for Advancing Translational Sciences (NCATS)

The list is partial. The share of hits here may be higher or lower than overall.
